High-throughput results (PubChem BioAssay)
GLA inh pH 4.5 = inhibitors of human alpha-galactosidase A at pH 4.5. P06280. purified enzyme, 4-MU-alpha-Gal fluorescence, pH 4.5. activity change, negative = inhibition, % at 105 µM. 230,000 tested, under 10 active. AID 1467; inconclusive = small, poorly fitted or top-dose-only inhibition, or a rising curve; inactive = flat fitted curve, though single readings scatter; no compound was filed as active;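 further: 0% = full activity with enzyme and -100% = basal without enzyme; dose as in the result columns while the protocol names 77 µM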
Target sequence (P06280 whole entry, looked up): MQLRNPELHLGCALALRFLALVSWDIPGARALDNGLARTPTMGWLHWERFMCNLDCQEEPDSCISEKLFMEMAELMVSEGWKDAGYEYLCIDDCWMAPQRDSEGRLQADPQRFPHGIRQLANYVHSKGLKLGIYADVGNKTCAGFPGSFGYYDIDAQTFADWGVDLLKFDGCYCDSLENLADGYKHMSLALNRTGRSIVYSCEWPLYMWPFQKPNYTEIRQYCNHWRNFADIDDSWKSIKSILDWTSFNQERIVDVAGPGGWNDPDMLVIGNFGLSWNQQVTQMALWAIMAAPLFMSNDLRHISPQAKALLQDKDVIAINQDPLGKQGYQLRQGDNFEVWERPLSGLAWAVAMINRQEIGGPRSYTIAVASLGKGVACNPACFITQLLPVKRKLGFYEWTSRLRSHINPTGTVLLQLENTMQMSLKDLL
miR-21 reporter = miR-21 reporter, rising signal. HeLa miR-21 FLuc reporter, luciferase, 48 h. Potency, µM (highest dose often 38.3 µM), without a hit: at the highest dose reporter change, positive = more light. 340,000 tested, under 10 active. AID 2288; active = well fitted rising curve with a large enough effect; inconclusive = small, poorly fitted or top-dose-only effect; inactive = no such curve, though single readings can be large or run the other way;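 further: % of control where 0% means no effect; miR-21 action dims this reporter so a rising signal means less miR-21 action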
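HeLa cells stably expressing CMV-driven firefly luciferase with a downstream miR-21 binding sequence, endogenously expressing miR-21, were treated with titrations (up to about 40uM final) for 48 hours at 37 degree Celsius. Luciferase luminescence was read after lysis.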
Rango-impB inh = Rango-importin beta binding inhibition; Q14974; Rango CFP/YFP FRET sensor + importin beta, 45 min; Potency, µM (highest dose often 92.2 µM), without a hit: top-dose inhibition of complex formation; 340,000 compounds, 0.031% hits; AID 540263; active = rising FRET ratio curve, often small or poorly fitted; inconclusive = mostly compound fluorescence or quenching in the first reads; inactive = flat curves in all reads;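 further: potency means the concentration at half of the fitted maximal effect; 0% = DMSO wells and 100% = buffer wells lacking importin beta; nearly all actives have a fitted effect of over 15% in size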
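FRET biosensor (snurportin 1 IBB flanked by EYFP and cerulean), 50 nM, with compound 5 min, then 0.125 microM importin beta in PBS, 1 mM DTT, 0.02% Tween-20, 0.1% BSA. CFP/YFP ratio read after 45 min at room temperature; pre-read flags interference.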
Rango release inh = prevents RanGTP from dissociating the Rango-importin beta complex. Biochemical FRET Rango-importin beta, RanGTP-induced dissociation. O95149+P62826. 340,000 compounds, 0.071% hits. Potency, µM (series often up to 46.1 µM), for the others: top-dose activity change, negative = inhibition; active means falling FRET ratio curve, often poorly fitted, with flat reads before Ran was added; inconclusive means other falling curves, or compound fluorescence or quenching; inactive means flat or rising ratio curve;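 further: potency means the concentration at half of the fitted maximal effect; % of control where 0% means no effect; nearly all actives have a fitted effect of over 45% in size; -100% = wells without RanGTP and RCC1; the record marks most hits as doubtful in a second field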
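FRET read at 45 min, room temperature: inhibitors block the CFP/YFP signal rise when RanGTP (0.6 uM Ran, 2 mM GTP, 0.2 uM RCC1) frees Rango (0.1 uM) from importin beta (0.25 uM). Pre-read after 5 min compound exposure flags interference.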
Starred values were filed as active, the others as inactive; ? = inconclusive; . = no result given; & = joins results of further samples; [ ] = remark or other dose.

| GLA inh pH 4.5 | miR-21 reporter | Rango-impB inh | Rango release inh | canonical_smiles |
| --- | --- | --- | --- | --- |
| . | 0% | 3.2% | 7% | O=C(Nc1ccc(Cc2ccncc2)cc1)c1ccc([N+](=O)[O-])o1 |
| . | 11% | -1.4% | 6% | O=C(NCC(=O)N1CC=C(c2ccccc2)CC1)c1ccccc1Br |
| -2 | -4% | -1.5% | -14% | CCCCNC(=O)c1nn(-c2ccccc2OC)c(=O)c2ccccc12 |
| -2 | 0% | 8.2% | 1% | CN(C)S(=O)(=O)c1cccc(NC(=O)COC(=O)/C=C/c2cccs2)c1 |
| . | -1% | 0.8% | -5% | O=C1c2ccccc2-c2cccnc21 |
| -3 | -4% | -1.2% | 15% | O=S(=O)(c1ccc(F)cc1)N1CCCC(CO)C1 (configuration not stated) |
| 2 | -11% | ? | ? | Cc1ccc(C=Nc2cccnc2N)cc1 |
| . | 6% | -0.5% | 1% | COc1cc(CN2CCCC(C(=O)N3CCc4ccccc4C3)C2)cc(OC)c1OC (configuration not stated) |
| . | 1% | -0.4% | 1% | CC1CCCC(C)N1CCCNC(=O)CN1C(=O)COc2ccc(S(=O)(=O)N3CCOCC3)cc21 (configuration not stated) |
| . | -1% | -0.6% | -7% | COc1cccc(C2NC(=O)CCC2[N+](=O)[O-])c1OC (configuration not stated) |
| -1 | -2% | -1.4% | 1% | CN(C[C@H](Cc1ccccc1)N(C[C@@H](CC1CCCCC1)N(CCc1ccccc1)N=O)N=O)N=O |
| 3 | -8% | 3.5% | -11% | CCn1nc(C(=O)OCC(=O)c2ccc3c(c2)OCCO3)c2ccccc2c1=O |
| -13 | 11% | 1.4% | 6% | Cc1ccc(-c2nc(Nc3ccc(N4CCOCC4)cc3)c3ccccc3n2)cc1 |
| . | -1% | -1.7% | -3% | CCOc1ccc(S(=O)(=O)N2CCC(C(=O)N3CCOCC3)CC2)cc1C |
| 2 | -2% | 1.2% | -2% | COc1nc(C)c2cc(C)oc2n1 |
| -26 | -10% | 0.6% | 12% | Cc1cc2c(sc3ccccc32)c(C)n1 |
| . | -4% | -1.5% | 1% | Cc1oc2c(cc(NS(=O)(=O)c3ccc(Cl)cc3)c3ccccc32)c1C(=O)O |
| -9 | -6% | . | . | COc1ccc(S(=O)(=O)Nc2nc3ccccc3nc2Nc2ccc3c(c2)OCO3)cc1 |
| -2 | -19% | ? | 1% | Cc1ncoc1C(=O)Nc1ncc([N+](=O)[O-])s1 |
| 12 | -7% | -5.7% | 0% | Cc1ccc(C)c(C(=O)CN2C(=O)CCC2=O)c1 |
| -4 | 27% | -0.5% | -3% | COc1ccc(S(=O)(=O)Cc2ccc(C(=O)N3CCN(c4ccc(Cl)cc4)CC3)o2)cc1 |
| 5 | 8% | 1.3% | 23% | COc1ccc(CNC(=O)c2cccc(NC(=O)c3ccccc3)c2)cc1 |
| . | -2% | -1.9% | -3% | CCn1c(SCC(=O)Nc2ccc(NC(C)=O)cc2)nc2c1c(=O)n(C)c(=O)n2C |
| 4 | -1% | 0.0% | -12% | O=C(O/N=C1/CCCc2occc21)c1ccc(F)cc1 |
| . | 10% | -3.6% | 0% | CCOC(=O)C1CCN(C(=O)CCc2ccc(S(=O)(=O)NCC(C)C)cc2)CC1 |
| 1 | -1% | -1.5% | 11% | CN(CCOc1ccc(-c2ccn(S(=O)(=O)c3c(Cl)cccc3Cl)n2)cc1)c1ccccn1 |
| . | -13% | -1.4% | 0% | COc1ccccc1NC(=O)NC1CCCCCCC1 |
| . | 4% | 1.5% | 1% | COc1ccc(CCNC(=O)C2CCN(C(=O)c3ccc(F)cc3)CC2)cc1 |
| -8 | -28% | -1.7% | -20% | O=[N+]([O-])c1ccc(O)c(C=Nc2ccc3c(c2)OCO3)c1 |
| 1 | -5% | -1.0% | 10% | Cc1cc2c(c(=O)n1Cc1ccccn1)C(C(C)C)C(C#N)=C(N)O2 (configuration not stated) |
| . | -6% | 0.6% | 26% | CCn1cc(C(=O)N[C@@H](CCSC)C(=O)NCCCOC)c(=O)c2cc3c(cc21)OCO3 |
| 5 | -5% | 0.4% | 2% | Cc1ccc(CNC(=O)c2ccc(NC(=O)CCS(=O)(=O)c3cccs3)cc2)cc1 |
| 0 | 2% | 0.0% | 6% | Clc1ccc(-n2nnnc2-c2ccno2)cc1 |
| 3 | -2% | -1.2% | -11% | Cc1ccc(C(=O)N/C(=C\c2ccco2)C(=O)NCc2cccnc2)cc1 |
| 11 | -1% | 1.0% | 2% | Cn1c(SCC(=O)N2CCc3ccccc3C2)nnc1-c1cccs1 |
| -2 | 4% | 2.1% | 0% | Cc1ccc(NC(=S)N2CCN(S(=O)(=O)c3c(F)cccc3F)CC2)cc1C |
| 2 | 0% | -0.5% | 3% | COc1ccc(NC2=NCC(=O)N2c2ccccc2F)c(OC)c1 |
| 12 | -3% | 2.4% | -24% | CN(C)c1nc(Oc2ccc(N)cc2)nc(N(C)C)n1 |
| -7 | -26% | -0.7% | 4% | Cc1ccc(CN(C(=O)c2cc(=O)c3cc(Cl)c(C)cc3o2)C2CCS(=O)(=O)C2)cc1 (configuration not stated) |
| 10 | -33% | 1.4% | ? | CC(C)CNc1oc(-c2ccc(F)cc2)nc1C#N |
| 7 | -2% | 0.0% | -12% | CCOC(=O)CNC(=O)C1(c2ccccc2)CCCC1 |
| -7 | -3% | -0.3% | 9% | COc1cc(/C=C(/NC(=O)c2ccccc2)C(=O)Nc2ccc(O)cc2)c([N+](=O)[O-])cc1OC |
| . | 4% | -2.6% | 0% | CC(=O)N1c2ccc(S(=O)(=O)NCCC(=O)Nc3ccc(F)cc3)cc2CC1C (configuration not stated) |
| 3 | 26% | 3.6% | 12% | Cc1cccn2c(Nc3ccccc3)c(-c3ccccn3)nc12 |
| 2 | -3% | -0.6% | 0% | CC(C)C(=O)OCCN=C1NS(=O)(=O)c2ccccc21 |
| -7 | -2% | 0.4% | 3% | CC(C)C(C(=O)Nc1ccc2c(c1)OCCOCCOCCOCCO2)N1C(=O)c2ccccc2C1=O (configuration not stated) |
| 7 | 1% | 1.9% | 8% | O=C(NCc1ccccc1Cl)c1ccc2c(=O)n(CCCN3CCCC3=O)c(=S)[nH]c2c1 |
| . | 0% | -3.0% | -18% | CCNc1nc(OC)nc(N(OC)S(=O)(=O)c2ccc(C)cc2)n1 |
| 0 | -1% | 3.7% | 8% | Cc1cc(OCC(O)CN(CCO)CCO)ccc1Cl (configuration not stated) |
| 6 | -10% | 2.4% | 6% | COc1ccc(OCC(=O)N2CCOCC2)cc1 |
| 0 | -12% | 0.0% | 1% | CCOC(=O)/C(C#N)=C/Nc1ccsc1C(C)=O |
| . | . | -1.4% | 9% | COc1cccc(CN(C)C(=O)c2cccc(S(=O)(=O)Nc3cccc(C)c3)c2)c1OC |
| 6[21.1 µM] | -27% | 5.1% | 1% | COCCNC(=O)C(=O)Nc1ccc(Cl)cc1C |
| -6 | 15% | 0.6% | 14% | O=C(O)/C=C/C(=O)NNC(=O)c1ccc(Cl)cc1Cl |
| 0 | -59% | 3.2% | 1% | CCCC(=O)Nc1ccc2oc(-c3ccncc3)nc2c1 |
| . | . | 1.1% | -17% | COc1ccc([C@H]2CC(=O)C=C(c3ccc(F)cc3OCc3ccccc3)C2)cc1OC |
| 5 | -3% | 0.7% | -18% | CC(=O)CC(C)=NCCN=C(C)CC(C)=O |
| 2 | 1% | -5.1% | 1% | Cc1ccc(NC(=S)NCCCN2CCOCC2)cc1 |
| -6 | 5% | . | . | Cc1ccc(C2(C)NC(=O)N(CC(=O)NC(=O)NC3CCCC3)C2=O)cc1 (configuration not stated) |
| -10 | -14% | -0.3% | -17% | CCOC(=O)C1=C(CC)OC(N)=C(C#N)C1c1ccc(NC(C)=O)cc1 (configuration not stated) |

Next part
| GLA inh pH 4.5 | miR-21 reporter | Rango-impB inh | Rango release inh | canonical_smiles |
| --- | --- | --- | --- | --- |
| 4 | -21% | -0.7% | 11% | O=C(N/N=C/C=C\c1cccc([N+](=O)[O-])c1)c1ccccn1 |
| -1 | -20% | -4.2% | 4% | CC(=O)N1N=C(c2cccc(Cl)c2)OC1c1cccc([N+](=O)[O-])c1 (configuration not stated) |
| 4 | -8%&-1% | -2.6% | -12% | COc1ccc(N2CCN(CCCNC(=O)Nc3ccccc3)CC2)cc1 |
| 7 | -30% | 0.4% | 8% | O=C(CNC(=O)C1CCCCC1)Nc1ccc(Cl)cc1 |
| . | 0% | 3.0% | -4% | NC(=O)c1ccc(/C=N/O)[n+](Cc2ccccc2)c1 |
| . | . | 0.0% | 8% | CC(=O)c1ccc(NC(=O)NC2CC(=O)N(c3ccc4c(c3)OCCO4)C2)cc1 (configuration not stated) |
| . | . | -2.1% | -13% | Cc1ccc(C2(C)NC(=O)N(CC(=O)Nc3nc(-c4ccccn4)cs3)C2=O)cc1 (configuration not stated) |
| -9 | -47% | ? | -18% | Cc1cc(/C=C(\C#N)C(=O)NCc2cccs2)c(C)n1-c1ccccc1F |
| 2 | -46% | -1.1% | -14% | CCCCSc1nnc(-c2ccc(OC)cc2)n1C |
| 4 | -1% | 0.1% | 3% | CCC1CCc2[nH]nc(C(=O)O)c2C1 (configuration not stated) |
| -2 | 1% | 2.2% | 7% | CC1CN(S(=O)(=O)c2cccc(C(=O)NCc3ccc4c(c3)OCO4)c2)CC(C)O1 (configuration not stated) |
| 2 | -7% | 0.7% | 16% | N#Cc1ccccc1Sc1ccccc1C(=O)OCC(N)=O |
| -2 | -5% | -1.3% | 10% | CCOC(=O)N1CCN(c2ncnc3c2cnn3-c2ccc(OC)cc2)CC1 |
| -9 | 1% | -3.2% | -3% | CN(O)/C=C/C(=O)c1ccc(Br)cc1 |
| 2[21.1 µM] | 1% | . | . | CCOC(=O)CCCCC(=O)c1[nH]c(=O)[nH]c1C[n+]1ccccc1 |
| -4 | -3%&-1% | 2.4% | 0% | CCCCN(CC)CCNC(=O)CN1C(=O)COc2ccc(S(=O)(=O)N3CCCC3)cc21 |
| . | -1% | 6.0% | -2% | O=C(CNC(=O)c1ccncc1)Nc1ccc(F)c(F)c1 |
| 11 | 4% | -1.2% | -9% | Cc1cccc(C)c1NC(=O)CNC(=O)c1c(C)nn(C)c1Cl |
| 1 | -23% | 0.0% | -4% | CCOC(=O)NC1(Nc2cccc(Cl)c2)Oc2ccccc2O1 |
| . | 5% | 3.2% | 46% | CC(C)CC(=O)N1CCN(Cc2ccc3ccccc3c2)CC1 |
| . | -1% | -2.3% | -14% | OC(c1nc2ccc(F)cc2[nH]1)C(O)c1nc2ccc(F)cc2[nH]1 (configuration not stated) |
| -3 | -2% | -0.5% | -7% | COc1cc(OC)cc(C(=O)NNC(=S)NCc2ccco2)c1 |
| . | . | 0.3% | -6% | CCCCN1CC(COCc2ccccc2)Oc2cccc(NCc3ccc(OC)cc3)c2S1(=O)=O (configuration not stated) |
| . | 1% | -4.5% | 14% | CSCCC1NC(=S)N(Cc2ccccc2)C1=O (configuration not stated) |
| -1 | -7% | 0.2% | -2% | O=S1(=O)N=C(N2CCN(Cc3ccccc3)CC2)c2ccccc21 |
| 0 | 1% | 0.7% | -22% | COc1ccc(Nc2nc(N)nc(CN3CCC(Cc4ccccc4)CC3)n2)cc1 |
| . | . | -0.1% | 4% | CCC/C(=C1/c2ccccc2C(=O)N1c1ccccc1)c1ccc2c(c1)OCCO2 |
| . | . | 1.4% | -4% | CC1=CC(=O)C(C(C)=Nc2ccccc2[N+](=O)[O-])C(=O)O1 (configuration not stated) |
| 7 | 0% | 0.6% | 3% | Cc1ccc(C)c(C(=O)NC(C)CCc2ccccc2)c1 (configuration not stated) |
| 8 | -1% | -0.5% | 3% | CCOC(=O)CSC1=C(C#N)C(=O)NC(c2ccc(OC)cc2)S1 (configuration not stated) |
| . | 6% | -0.1% | 9% | COc1cccc(CNC(=O)c2nnn(CC(=O)Nc3ccc(Br)cc3)c2N)c1 |

Full records, looked up by structure.
`Cc1ccc(C)c(C(=O)NC(C)CCc2ccccc2)c1` (configuration not stated) is listed as GLA inh pH 4.5: 7; miR-21 reporter: 0%; Rango-impB inh: 0.6%; Rango release inh: 3%
`CCCCSc1nnc(-c2ccc(OC)cc2)n1C` is listed as GLA inh pH 4.5: 2; miR-21 reporter: -46%; Rango-impB inh: -1.1%; Rango release inh: -14%

An excerpt; count on the stated rates, not on these rows.
